Ecoli rRNA inh = reduced GFP signal of wild-type E. coli, primary screen, bacterial rRNA inhibitor project, GFP/RFP fluorescence, OD600, single point; AID 720706, 2013; 350,000 tested, 1.6% active; E. coli WT GFP vs humanized-ribosome RFP mutants, 24 h; hits give low values; DMSO median 0, no signal -100; GFP signal change (wild-type ribosome), % (concentration not given with the values);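 active means significant combined selectivity score with lowered wild-type GFP, culture density cut under 30%, mutant RFP and density less affected; inactive means any of these conditions unmet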; further: one replicate is shown; some compounds called inactive have numbers as strong as hits
Ecoli rRNA inh OD600 = second read-out of Ecoli rRNA inh, no call of its own (marks repeat the call); OD600 change, %; measured here: OD600 growth;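 optical density of the mix in the first replicate; 0 = DMSO median and -100 = no signal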
Ecoli rRNA inh RFP = further read-out of Ecoli rRNA inh, marked with its call; RFP signal change, %; measured here: RFP humanized mutant strains;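 first replicate; 0 = DMSO median and -100 = no signal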
* = called active by the depositor. Some of the compounds tested; count on the stated rates, not on these rows.

No.	Ecoli rRNA inh	Ecoli rRNA inh OD600	Ecoli rRNA inh RFP	SMILES
1	0.8	6.3	-2.9	C/C=C/c1ccc([C@@H]2[C@@H](CO)N[C@@H]2CN(C(=O)C2CCCC2)C(C)C)cc1
2	-4.7	-26.3	12.8	C[C@@H]1CN([C@H](C)CO)S(=O)(=O)c2ccc(C#CC3CC3)cc2O[C@@H]1CN(C)C(=O)C1CCCCC1
3	-4.7	-14.8	1.4	C[C@@H]1CN([C@@H](C)CO)C(=O)Cc2cc(NC(=O)Cc3ccccc3)ccc2O[C@@H]1CN(C)Cc1ccc2c(c1)OCO2
4	-29.9	-64.8	9.6	O=C(CC1CCCC1)N[C@H](C(=O)N1CCC[C@H]1C(=O)NCCc1ccccc1Cl)c1ccccc1
5	-5.9	-12.9	5.3	C[C@@H]1CN([C@@H](C)CO)C(=O)c2cc(NC(=O)Nc3ccccc3)ccc2O[C@@H]1CN(C)Cc1ccc(Cl)c(Cl)c1
6	-0.1	4.8	2.9	C[C@@H]1CCCCO[C@@H](CN(C)CC2CC2)[C@H](C)CN([C@@H](C)CO)C(=O)c2cc(NC(=O)Nc3cccc4ccccc34)ccc2O1
7	16.2	16.9	1.9	CC(C)C(C(=O)NCc1ccccc1)N1CCN(CCN2CCOCC2)CC1 (configuration not stated)
8	3.3	11.8	0.3	C[C@H]1CN([C@@H](C)CO)C(=O)c2cc(C#CC(C)(C)O)cnc2O[C@@H]1CN(C)C(=O)C1CCCCC1
9	-3.0	-4.7	1.5	COCC(=O)N1CC2(C1)CN(Cc1cccc(OC)c1)[C@H](CO)c1c2c2ccc(OC)cc2n1C
10	-31.2	-63.1	-2.9	C[C@@H]1ON(C)[C@H]2C[C@H]3c4[nH]c5c(-c6ccc7c(c6)OCO7)cccc5c4CCN3C(=O)[C@@H]12
11	5.3	5.5	-0.8	CCCN(C)C[C@H]1OCCCC[C@@H](C)Oc2ccc(NC(=O)Cc3ccccc3)cc2C(=O)N([C@@H](C)CO)C[C@H]1C
12	0.2	-0.4	0.5	CC(=O)Nc1ccc2c(c1)C(=O)N(C)[C@@H]1CC[C@@H](CC(=O)N3CCc4ccccc4C3)O[C@@H]1CO2
13	4.8	0.9	1.3	O=C(CN1CCOCC1)N1C[C@@H]2N[C@H](C1)C2c1ccc(-c2ccncc2)cc1 (some centres not stated)
14	-3.1	-4.6	0.3	CC(=O)N1[C@@H]2CN(S(C)(=O)=O)C[C@H]1C2c1ccc(-c2ccc(F)cc2)cc1 (some centres not stated)
15	0.7	16.5	2.8	CN1C(=O)c2cc(NC(=O)c3cnccn3)ccc2OC[C@H]2O[C@H](CC(=O)NCC3CCCCC3)CC[C@H]21
16	-50.4	-72.3	-7.2	O=C(c1cccc(F)c1)N1CC[C@@H]2[C@@H](CO)Nc3ccc(-c4cccc(F)c4)cc3[C@@H]21
17	2.2	9.9	-0.5	CC=Cc1ccc2n(c1=O)C[C@H]1[C@H](CO)[C@@H](C(=O)NCC)N(CC3CCOCC3)[C@@H]21 (mixture of isomers)
18	-0.5	-2.9	-1.1	O=C(C[C@H]1C[C@H]2c3cc(NC(=O)Nc4ccccc4)ccc3O[C@H]2[C@H](CO)O1)NCc1cccnc1
19	3.5	10.5	-3.4	CCCNC(=O)N1C[C@H]2[C@@H](c3ccccc31)[C@H](CO)N2C(=O)Cc1ccccn1
20	11.5	34.6	6.6	Cc1ccccc1C(=O)N(C)[C@H]1C[C@H]2c3[nH]c4c(-c5ccccc5)cccc4c3CCN2C(=O)[C@H]1[C@H](C)O
21	-2.0	-2.0	-1.1	C[C@H](CO)N1C[C@H](C)[C@H](CN(C)C(=O)CN(C)C)Oc2ncc(C#CCC3CCCC3)cc2C1=O
22	4.7	-6.8	-2.6	Cc1cccc(N2CCN(C(C(=O)NCc3ccccc3)c3ccc(F)cc3)CC2)c1C (configuration not stated)
23	-22.2	-58.6	12.4	CC(C)CC#Cc1ccc([C@H]2[C@H]3CN(C(=O)c4ccc5c(c4)OCO5)CC(=O)N3[C@H]2CO)cc1
24	1.1	1.9	-1.8	C[C@@H]1CN(C)C(=O)c2cccc(NS(C)(=O)=O)c2O[C@H]1CN(C)C
25	-2.4	-9.1	-2.0	COc1ccc(S(=O)(=O)Nc2cccc3c2O[C@H](CN(C)C(=O)Nc2cccc4ccccc24)[C@@H](C)CN([C@H](C)CO)C3=O)cc1
26	-2.1	-5.0	2.4	C[C@H](CO)N1C[C@H](C)[C@@H](CN(C)Cc2ccc(C(=O)Nc3ccccc3N)cc2)Oc2ccc(NC(=O)Nc3ccccc3)cc2CC1=O
27	5.0	-0.1	0.1	CCC(=O)N1[C@H](CO)[C@@H](c2ccc(C3=CCCC3)cc2)[C@@H]1CNC(=O)CN(C)C
28	28.7	34.9	9.6	COC(=O)C1=C(C)N(Cc2ccc(C(F)(F)F)cc2)C(=NCc2ccccc2C(F)(F)F)NC1c1ccccc1C(F)(F)F (configuration not stated)
29	-27.1	-57.2	0.6	C[C@@H]1ON(C)[C@H]2C[C@H]3c4[nH]c5c(-c6ccc(F)cc6)cccc5c4CCN3C(=O)[C@@H]12
30	-1.0	10.0	1.0	COc1ccc(NC(=O)Nc2ccc3c(c2)CC(=O)N([C@@H](C)CO)C[C@H](C)[C@@H](CN(C)Cc2ccc(Cl)c(Cl)c2)O3)cc1
31	-1.5	-1.4	-3.9	COCC(=O)Nc1ccc2c(c1)[C@H]1C[C@H](CC(=O)NCc3cc(F)ccc3F)O[C@@H](CO)[C@H]1O2
32	-3.8	2.9	-0.2	COc1ccc2c3c([nH]c2c1)[C@@H](CO)N(CC1CC1)CC31CN(C(=O)c2ccccc2F)C1
33	0.2	0.6	2.2	C[C@@H]1CCCCO[C@H](CN(C)Cc2ccc(C(F)(F)F)cc2)[C@H](C)CN([C@H](C)CO)C(=O)c2cc(NC(=O)C3CCCCC3)ccc2O1
34	1.0	2.2	1.0	Cc1ccc(S(=O)(=O)Nc2ccc3c(c2)C(=O)N([C@H](C)CO)C[C@@H](C)[C@H](CN(C)C(=O)c2ccncc2)OCCCC[C@@H](C)O3)cc1
35	4.2	11.4	-0.9	Cc1noc(C)c1NC(=O)N(C)C[C@H]1Oc2ccc(NS(=O)(=O)c3c(C)noc3C)cc2C(=O)N([C@@H](C)CO)C[C@H]1C
36	-1.8	4.7	0.4	CC=Cc1ccc2n(c1=O)C[C@H]1[C@H](CO)[C@@H](C(=O)NCC(F)(F)F)[C@@H]2N1C(=O)C1CCCC1 (mixture of isomers)
37	-2.9	4.3	0.5	C[C@H](CO)N1C[C@H](C)[C@H](CN(C)C(=O)CCC(F)(F)F)OCCCC[C@H](C)Oc2ccc(NC(=O)CCCN(C)C)cc2C1=O
38	2.0	9.0	-2.2	C/C=C/c1ccc([C@@H]2[C@@H](CO)N(C(C)=O)[C@H]2CN(C)S(C)(=O)=O)cc1
39	-1.3	4.5	-0.2	COCC#Cc1ccc2c(c1)O[C@H](CN(C)S(=O)(=O)c1ccc(OC)cc1)[C@@H](C)CN([C@@H](C)CO)S2(=O)=O
40	-8.3	-17.9	3.3	CN1c2ccc(Br)cc2[C@H]2[C@H](CCN2C(=O)Nc2cccc(F)c2)[C@@H]1CO

Five entries picked at random from those above:
No.	Ecoli rRNA inh	Ecoli rRNA inh OD600	Ecoli rRNA inh RFP	SMILES
25	-2.4	-9.1	-2.0	COc1ccc(S(=O)(=O)Nc2cccc3c2O[C@H](CN(C)C(=O)Nc2cccc4ccccc24)[C@@H](C)CN([C@H](C)CO)C3=O)cc1
31	-1.5	-1.4	-3.9	COCC(=O)Nc1ccc2c(c1)[C@H]1C[C@H](CC(=O)NCc3cc(F)ccc3F)O[C@@H](CO)[C@H]1O2
22	4.7	-6.8	-2.6	Cc1cccc(N2CCN(C(C(=O)NCc3ccccc3)c3ccc(F)cc3)CC2)c1C (configuration not stated)
38	2.0	9.0	-2.2	C/C=C/c1ccc([C@@H]2[C@@H](CO)N(C(C)=O)[C@H]2CN(C)S(C)(=O)=O)cc1
34	1.0	2.2	1.0	Cc1ccc(S(=O)(=O)Nc2ccc3c(c2)C(=O)N([C@H](C)CO)C[C@@H](C)[C@H](CN(C)C(=O)c2ccncc2)OCCCC[C@@H](C)O3)cc1

More records:
No.	Ecoli rRNA inh	Ecoli rRNA inh OD600	Ecoli rRNA inh RFP	SMILES
41	1.0	7.4	-1.3	C[C@@H]1CN([C@@H](C)CO)C(=O)Cc2cc(NS(=O)(=O)c3cn(C)cn3)ccc2O[C@H]1CN(C)C(=O)NC1CCCCC1
42	-43.1	-78.3	-14.6	O[C@@H](Cc1ccccc1)[C@@H](/C=C/c1ccccc1)NCCc1ccccc1
43	2.0	-0.6	-0.5	CCCNC(=O)C[C@H]1C[C@H]2c3cc(NC(=O)Nc4ccccc4)ccc3O[C@H]2[C@H](CO)O1
44	-11.0	-24.8	6.6	CCCn1cc(C(=O)Nc2ccc(Oc3cccnc3)cc2)c2ccccc21
45	3.4	-1.5	0.4	O=C(Nc1ccc2c(c1)[C@@H]1C[C@H](CC(=O)N3CCOCC3)O[C@H](CO)[C@@H]1O2)C1CCC1
46	1.6	5.8	0.8	C[C@@H]1CCCCO[C@H](CN(C)C)[C@@H](C)CN([C@@H](C)CO)C(=O)c2cc(NC(=O)c3ccccc3)ccc2O1
47	-2.1	-1.5	3.5	CN(C)C(=O)c1cccc(-c2ccc(C3[C@H]4CNC[C@@H]3N4S(=O)(=O)Cc3ccccc3)cc2)c1 (some centres not stated)
48	-0.6	-2.9	0.0	C/C=C/c1ccc([C@@H]2[C@H](CO)N(C(=O)CC)[C@H]2CNC(=O)CC2CC2)cc1
49	-3.0	-9.5	7.1	CN1c2ccc(-c3cccc(C#N)c3)cc2[C@@H]2[C@@H](CCN2S(=O)(=O)c2cccc(F)c2)[C@@H]1CO
50	-41.7	-72.7	-12.8	COc1ccc(N2C(=O)c3n[nH]c(C(C)C)c3C2c2ccc(C)cc2)cc1 (configuration not stated)
51	-18.9	-48.4	10.4	CC(C)CC#Cc1ccc2c(c1)O[C@@H](CN(C)C(=O)CC1CC1)[C@H](C)CN([C@H](C)CO)S2(=O)=O
52	-0.6	-2.7	-2.3	CNC[C@H]1Oc2ccc(NC(=O)NC(C)C)cc2C(=O)N(C)C[C@H]1C
53	2.9	1.3	-2.5	CN1C(=O)c2cc(NC(=O)c3cnccn3)ccc2OC[C@H]2O[C@@H](CC(=O)NCC3CC3)CC[C@H]21
54	23.0	16.3	-1.7	COc1ccc2c(c1)[C@@]1(OCCC=C[C@H]1C)C(=O)N2C/C=C(\C)CCC=C(C)C
55	0.8	8.5	-5.1	C[C@@H]1CN([C@H](C)CO)C(=O)c2cc(-c3ccccc3)cnc2O[C@@H]1CN(C)C(=O)c1cccc(F)c1
56	-12.6	-5.9	5.0	COCc1[nH]nc2c1C(c1ccc(C)cc1)N(Cc1ccccc1)C2=O (configuration not stated)
57	1.5	-0.4	-2.2	CN1C(=O)c2cc(NC(=O)C3CC3)ccc2OC[C@H]2O[C@H](CC(=O)NCc3cccc(F)c3)CC[C@H]21
58	-9.6	-29.9	25.8	Cc1ccc(S(=O)(=O)Nc2ccc3c(c2)C(=O)N([C@H](C)CO)C[C@@H](C)[C@@H](CN(C)Cc2ccccc2)OCCCC[C@H](C)O3)cc1
59	2.2	12.4	-0.5	C[C@@H]1CN([C@H](C)CO)C(=O)c2cccc(NS(=O)(=O)c3ccc(Cl)cc3)c2O[C@@H]1CN(C)S(=O)(=O)c1ccc(F)cc1
60	2.6	9.1	-3.4	COC(=O)N(C)C[C@H]1OCc2ccccc2-c2ccccc2C(=O)N([C@H](C)CO)C[C@@H]1C

Compound profiles (already shown).
CNC[C@H]1Oc2ccc(NC(=O)NC(C)C)cc2C(=O)N(C)C[C@H]1C is listed as Ecoli rRNA inh: -0.6; Ecoli rRNA inh OD600: -2.7; Ecoli rRNA inh RFP: -2.3
CC(C)C(C(=O)NCc1ccccc1)N1CCN(CCN2CCOCC2)CC1 (configuration not stated) is listed as Ecoli rRNA inh: 16.2; Ecoli rRNA inh OD600: 16.9; Ecoli rRNA inh RFP: 1.9

Next entries follow:
No.	Ecoli rRNA inh	Ecoli rRNA inh OD600	Ecoli rRNA inh RFP	SMILES
61	0.0	1.0	-1.6	CNC(=O)C[C@H]1CC[C@H]2[C@@H](COc3ccc(NS(=O)(=O)c4ccc(F)cc4)cc3C(=O)N2C)O1
62	24.8	32.8	6.0	COC(=O)C1=C(C)N(Cc2ccc(Cl)cc2)C(=S)NC1c1cccc(Br)c1 (configuration not stated)
63	-2.0	4.9	2.3	COc1ccc(S(=O)(=O)Nc2ccc3c(c2)C(=O)N([C@@H](C)CO)C[C@@H](C)[C@@H](CN(C)S(=O)(=O)c2ccc(OC)cc2)OCCCC[C@@H](C)O3)cc1
64	1.7	0.3	-1.4	CC(C)NC(=O)N1[C@@H]2CN(C(=O)c3ccc(F)cc3)c3ccccc3[C@@H]2[C@@H]1CO
65	5.3	6.5	-0.9	C[C@@H]1CCCCO[C@H](CN(C)C)[C@@H](C)CN([C@H](C)CO)C(=O)c2cc(NC(=O)Nc3ccccc3)ccc2O1
66	-4.6	-4.5	2.1	O=C(Nc1ccc(F)cc1)Nc1ccc2c(c1)[C@H]1C[C@@H](CC(=O)N3CCCCC3)O[C@H](CO)[C@H]1O2
